gsp ag = gsp mutant agonism; gsp mutant cells, cAMP HTRF, 30 min; control for the full effect not named in the record; Potency, µM (doses to about 76.9 µM), for the others: top-dose activation (cAMP increase), most hits filed as activators; hit rate 0.13% among 340,000; active = well fitted activation curve with a large enough effect; inconclusive = small, poorly fitted or top-dose-only effect, or another doubt; inactive = no such curve, though single readings can be large or run the other way; cell line not stated here;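 note: phosphodiesterase inhibitor Ro 20-1724 added with compounds to block cAMP breakdown; potency is the fitted concentration of half-maximal effect; nearly all actives have a fitted effect of over 60% in size; about a fifth of the inactives were tested at one dose only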
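Cells stably selected in G418 were plated at 2000/well, grown 16-24 hr, then given compounds in DMSO with the PDE inhibitor […] (300 uM solution added) for 30 min at 37C; cAMP was read by HTRF.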
Menin-MLL FL inh = inhibitors of human menin-MLL interaction, wild-type MLL peptide; 290,000 tested, under 10 active; FP activity change, % at 61.4 µM; Fluorescence polarization, fluorescein-MLL peptide displacement from menin; AID 1766; inconclusive = falling polarisation curve, or a change in total fluorescence; inactive = total fluorescence flat and polarisation flat or rising; no compound was filed as active; the % refers to the polarisation; negative = inhibition;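 note: % of control where 0% means no effect; inhibitors lower the polarisation; unlabelled MLL peptide was the positive control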
gsp antagonist = antagonizes gsp, the McCune-Albright syndrome mutation; gsp-mutant cells, cAMP HTRF, 30 min; control for the full effect not named in the record; Potency, µM (series often up to 76.9 µM), for the others: at the highest dose activity change, negative = inhibition, actives largely listed as inhibitors; hit rate 0.4% among 340,000; AID 624288; active = falling curve of any shape with a large fitted effect; inconclusive = falling curve, mostly with a smaller effect; inactive = flat or rising curve; cell line not stated here;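 note: intracellular cAMP measured with PDE inhibitor Ro 20-1724 present during compound exposure; potency is the fitted concentration of half-maximal effect; % is set by controls: 0 for no effect and ±100 for the full control effect; nearly all actives have a fitted effect of over 65% in size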
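G418-selected cells were plated in DMEM/10% FBS for 16-24 h at 37C, then treated with compounds plus the PDE inhibitor […] (300 uM solution added) for 30 min at 37C. Intracellular cAMP was measured by HTRF after 30 min lysis at room temperature.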
TRPV1 potentiator = potentiators of human vanilloid receptor 1 (TRPV1) | Q8NER1 | potentiation, % at 8.33 µM | hit rate 0.02% among 320,000 | AID 540277 | TRPV1-expressing cells, Fluo-8 calcium influx, capsaicin EC20 potentiation; host cell line not named in the record; control for the full effect not named in the record; active means potentiation above 80%; inconclusive means 30% to 80%; inactive means below 30%; note: 0% is about no effect
Target sequence (Q8NER1 whole entry, looked up): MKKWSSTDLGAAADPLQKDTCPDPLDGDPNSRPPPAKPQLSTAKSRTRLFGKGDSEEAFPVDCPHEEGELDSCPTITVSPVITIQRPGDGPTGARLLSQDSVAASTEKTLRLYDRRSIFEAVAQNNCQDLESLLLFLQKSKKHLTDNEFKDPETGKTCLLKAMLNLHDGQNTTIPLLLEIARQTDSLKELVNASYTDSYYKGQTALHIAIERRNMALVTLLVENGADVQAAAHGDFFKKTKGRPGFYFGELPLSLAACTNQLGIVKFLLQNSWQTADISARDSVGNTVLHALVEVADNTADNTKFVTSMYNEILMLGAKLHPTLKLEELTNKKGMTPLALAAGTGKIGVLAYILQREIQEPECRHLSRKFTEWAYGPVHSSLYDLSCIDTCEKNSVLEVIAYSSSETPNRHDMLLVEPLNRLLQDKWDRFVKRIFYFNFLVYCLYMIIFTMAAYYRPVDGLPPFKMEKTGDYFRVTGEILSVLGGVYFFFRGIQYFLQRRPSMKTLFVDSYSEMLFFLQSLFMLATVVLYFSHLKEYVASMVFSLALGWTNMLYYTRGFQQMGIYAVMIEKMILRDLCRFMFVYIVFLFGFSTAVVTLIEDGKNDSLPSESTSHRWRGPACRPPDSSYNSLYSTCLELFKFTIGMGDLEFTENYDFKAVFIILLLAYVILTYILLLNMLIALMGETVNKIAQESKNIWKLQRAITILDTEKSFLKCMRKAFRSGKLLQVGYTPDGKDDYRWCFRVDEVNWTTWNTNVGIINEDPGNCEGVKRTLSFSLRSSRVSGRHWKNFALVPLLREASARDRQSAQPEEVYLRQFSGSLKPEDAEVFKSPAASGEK
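TRPV1-expressing cells were cultured overnight at 35.5C and loaded with Fluo-8 calcium dye for 40 to 90 min at room temperature. After a 10 s baseline, compound was added and calcium influx was read kinetically for 3 min (ex 480/em 520 nm).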
ClpP mod = qHTS Assay for Activators of ClpP; ATP-dependent Clp protease proteolytic subunit (Bacillus subtilis (strain 168)), P80244; hit rate 1.9% among 340,000; Potency, µM (series often up to 57.5 µM), for inactives: at the top dose activity change, negative = active; AID 651965, 2013; purified B. subtilis ClpP, FRET peptide cleavage, 20 min; active = well fitted falling curve with a large enough effect; inconclusive = small, poorly fitted or top-dose-only effect; inactive = no such curve, though single readings can be large or run the other way; note: potency is the fitted concentration of half-maximal effect; the source files actives as falling curves though it sought activators and does not explain the sign; nearly all actives have a fitted effect of over 65% in size; many hits overshoot -100%
Target sequence (P80244 whole entry, looked up): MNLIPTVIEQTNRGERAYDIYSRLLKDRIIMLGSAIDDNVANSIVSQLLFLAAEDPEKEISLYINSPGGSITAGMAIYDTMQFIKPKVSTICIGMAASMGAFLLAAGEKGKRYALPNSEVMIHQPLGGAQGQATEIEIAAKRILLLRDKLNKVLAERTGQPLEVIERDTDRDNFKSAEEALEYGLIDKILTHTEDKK
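FRET quenching reversal measured ClpP activation: 10 microg/mL B. subtilis ClpP at pH 8 with the FRET-FV decapeptide, read at 430 nm after 320 nm excitation. The 20-min minus 0-min signal was scaled between DMSO/no-enzyme wells and ADEP (5.8 microM final).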
Sfp inh = inhibitors of Bacillus subtilis Sfp phosphopantetheinyl transferase. Q9F4F7. Biochemical Sfp PPTase activity, qHTS. Potency, µM, for inactives: max response, negative = inhibition, actives largely listed as inhibitors. hit rate 3.5% among 310,000. AID 1490; active = well fitted inhibition curve with a large enough effect; inconclusive = small, poorly fitted or top-dose-only effect, or another doubt; inactive = no such curve, though single readings can be large or run the other way;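 note: the enzyme is Sfp with the accession as filed and its product quenches rhodamine fluorescence; potency is the fitted concentration of half-maximal effect; 0% = enzyme reaction without inhibitor and -100% = no enzyme wells; top concentration of the series not given in the record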
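Sfp 15 nM + cpd, 15 min RT; start w/ rhodamine-CoA 5 uM, BHQ-2-YbbR 12.5 uM (final); 50 mM Hepes pH 7.6, 10 mM MgCl2, 0.01% NP-40, 0.01% BSA; read 525/598 nm at 0 and 30 min.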
CtBP-E1A inh = inhibitors of CtBP/E1A interaction; AlphaScreen GST-E1A/His-CtBP binding, 1536-well; active compounds read low; control for the full effect not named in the record; activity change, % (test concentration not listed); hit rate 0.49% among 340,000; in the data active means activity change below about -65%; inconclusive means about -30% to -65%; inactive means above about -30%; note: % is set by controls: 0 for no effect and ±100 for the full control effect
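In 5 uL wells, 23 nL compound meets equimolar GST-E1A and His-CtBP (5X stock 125 nM each) for 2 h, 37 °C. Beads (5X, 50 ug/mL) then 1 h, 37 °C, dark.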
* = called active by the depositor; ? = inconclusive; . = not tested or not shown; & = joins results of further samples; [ ] = remark or other dose.

canonical_smiles	gsp ag	Menin-MLL FL inh	gsp antagonist	TRPV1 potentiator	ClpP mod	Sfp inh	CtBP-E1A inh
COc1cc(/C=N/Nc2nc3ccccc3s2)cc([N+](=O)[O-])c1O	0%	0.1	?	12	-0.1%	?	.
Cc1cccc(CCNS(=O)(=O)c2ccc3c(c2)CCN3C(=O)CCC(=O)O)c1	-37%	.	16%	-19	1.1%	14%	-13
N#Cc1cccc(CN2CCC(=O)N([C@H](CO)c3ccccc3)CC2)c1	?	-13	-7%	-4	0.5%&0.7%	3%	.
O=C(NNC1CC(=O)N(c2ccc(Cl)cc2)C1=O)c1ccccc1Cl (centres undefined)	-3%[15.4 µM]	2.9	8%	4	-1.2%	22%	0
O=c1c2c(-c3ccc([N+](=O)[O-])cc3)ccnc2[nH]n1-c1ccccc1	?	-7.4	-6%	-23	-1.5%	-8%	3
CCCCOC(=O)c1ccc(NC(=O)C(=O)NCc2ccncc2)cc1	-14%	1.4	-8%	-5	-17%	2%	0
COc1ccc(/C=C/C(=O)OCC(=O)Nc2cc(C(N)=O)cc(C(N)=O)c2)cc1	25%	-4.0	3%	7	.	26%	-27
Cc1ccc(CNC(=O)C2CCC(=O)N(CCc3ccccc3)C2)s1 (centres undefined)	?	0.1	-2%	3	0.7%	15%	2

4 entries from above, field by field:
Cc1cccc(CCNS(=O)(=O)c2ccc3c(c2)CCN3C(=O)CCC(=O)O)c1
  gsp ag = -37%
  Menin-MLL FL inh = .
  gsp antagonist = 16%
  TRPV1 potentiator = -19
  ClpP mod = 1.1%
  Sfp inh = 14%
  CtBP-E1A inh = -13

N#Cc1cccc(CN2CCC(=O)N([C@H](CO)c3ccccc3)CC2)c1
  gsp ag = ?
  Menin-MLL FL inh = -13
  gsp antagonist = -7%
  TRPV1 potentiator = -4
  ClpP mod = 0.5%&0.7%
  Sfp inh = 3%
  CtBP-E1A inh = .

Cc1ccc(CNC(=O)C2CCC(=O)N(CCc3ccccc3)C2)s1 (centres undefined)
  gsp ag = ?
  Menin-MLL FL inh = 0.1
  gsp antagonist = -2%
  TRPV1 potentiator = 3
  ClpP mod = 0.7%
  Sfp inh = 15%
  CtBP-E1A inh = 2

O=c1c2c(-c3ccc([N+](=O)[O-])cc3)ccnc2[nH]n1-c1ccccc1
  gsp ag = ?
  Menin-MLL FL inh = -7.4
  gsp antagonist = -6%
  TRPV1 potentiator = -23
  ClpP mod = -1.5%
  Sfp inh = -8%
  CtBP-E1A inh = 3

Carrying on.
canonical_smiles	gsp ag	Menin-MLL FL inh	gsp antagonist	TRPV1 potentiator	ClpP mod	Sfp inh	CtBP-E1A inh
Clc1cccc(OCc2nc(-c3ccncc3)no2)c1	?	-0.1	8%	3	2.0%	-35%	.
O=S(=O)(Nc1nc2ccccc2nc1Nc1cccc(S(=O)(=O)N2CCCCC2)c1)c1ccccc1	-45%[inhibitor]	-0.2	35µM*	-8	25µM*	-12%	1
C=CCn1c(=O)/c(=C/c2ccc(F)cc2)s/c1=C(\C#N)c1nnc2n1CCCCC2	-26%	7.8	-7%	11	-0.8%	-1%	4
Cc1occc1C(=O)NNS(=O)(=O)c1ccc(Cl)cc1	10%[15.4 µM]	-0.8	9%	30	-2.8%	-21%	-6
COc1ccc(S(=O)(=O)N2CCOCC2)cc1NC(=O)c1ccc(OC(F)F)cc1	2%[15.4 µM]	.	5%	6	.	.	-9
CCC(NC(=O)c1cc(COc2ccc(C)nc2)on1)c1ccc(C)cc1 (centres undefined)	-4%	.	-1%	24	1.1%	0%	-1
O=C(NC1CCCCC1)C1CCN(c2nnnn2-c2ccccc2)CC1	19%	0.3	0%	-21	0.9%	14%	-1
CCOc1ccc2cc(C3CC(c4ccco4)=NN3S(C)(=O)=O)c(=O)[nH]c2c1 (centres undefined)	5%	11	-7%	-8	-8.2%	22µM*	2
Cc1sc(NC(=O)c2ccc3ncsc3c2)c(C(N)=O)c1C	2%[15.4 µM]	.	-3%	-15	?	.	?
COC(=O)/C(C#N)=C(/Nc1ccc(F)c(Cl)c1)C(F)(F)F	-13%[15.4 µM]	0.9	8%	-8	.	3%	5
CC(C)c1c(C(=O)N/N=C/c2cccnc2)nnn1-c1nonc1N	9%[15.4 µM]	0.1	0%	-13	.	12%	0
COc1ccc(C(=O)Nc2nc(C)c3cc4c(cc3n2)OCO4)cc1	?	0.6	2%	1	.	18%	-10
CCCC[C@@H]1C=C(C(=O)O)[C@H](c2ccc3c(c2)OCO3)N1S(=O)(=O)c1ccc(C)cc1	.	.	?	.	-3.1%	.	-20
Cc1cccc(C)c1NC(=O)C(c1cccc([N+](=O)[O-])c1)N(C)C(=O)c1ccccn1 (centres undefined)	-5%[15.4 µM]	0.4	0%	-7	2.0%	-5%	-3
COc1ccc(/C(O)=C/c2nc3ccc(C(=O)NCCc4cccc(C)c4)cc3[nH]c2=O)cc1OC	-4%	?	5%	17	-0.9%	26%	5
COC(=O)c1cn(NC(=O)c2ccncc2)c(=O)c2ccccc12	-2%	0.6	-1%	-9	-2.2%	20%	8
COC(=O)c1cc(C)sc1NC(=S)N1CCN(CCc2ccccc2)CC1	-11%[15.4 µM]	4.0	5%	-7	-2.0%	-15%	1
CCN1CCN(c2ccc(NC(=O)c3cc(S(=O)(=O)N4CCCC4)ccc3Cl)cc2)CC1	-18%	.	2%	-8	-0.4%	.	.
CC(C)(C)c1ccccc1OCCOCCNCc1ccccc1	15%	5.7	-8%	-9	1.7%	-27%	1
COc1ccccc1C(=O)Nc1ccnn1C1CCN(CC2CC=CCC2)CC1 (centres undefined)	-13%	.	12%	5	0.8%	2%	3
O=S(=O)(Nc1cccc(-c2ccc3nncn3n2)c1)c1ccc(Cl)s1	-1%	-1.5	-8%	16	.	12%	-24
C=CCn1c(COc2cccc(C)c2C)nnc1SCC(=O)N1CCN(c2ccccc2)CC1	23%	0.8	-19%	-5	-2.2%	-2%	5
CC(C(=O)Nc1ccc(F)c(F)c1F)N(C)CC(=O)Nc1ccccc1Br (centres undefined)	-24%	3.4	-10%	-8	.	8%	4
COc1ccc(N2CCN(Cc3nc(-c4ccc(Cl)cc4Cl)no3)CC2)cc1	34%	5.4	-16%	6	-0.7%	-24%	?
CNC(=O)C[C@H]1C(=O)N(Cc2ccccc2)C[C@@H]1CSC	-124%[inhibitor]	.	.	.	-3.5%	.	-24
CCCC(=O)NC(=S)Nc1ccccc1N1CCOCC1	-3%	1.3	0%	1	0.1%	-6%	-1
O=C(CP(=O)(c1ccccc1)c1ccccc1)Nc1nc2ccc(Cl)cc2s1	-3%[15.4 µM]	2.8	-28%	8	-0.2%	6%	-2
CCOC(=O)C1CCN(C(=O)c2ccc3c(=O)n4c(nc3c2)CCCCC4)CC1	15%	.	6%	27	-2.6%	.	2
COc1ccc(CC2(CO)CCN(Cc3ccncc3)CC2)cc1	-11%[15.4 µM]	0.1	16%	-9	.	13%	4
O=C(Cc1ccccc1F)NNC(=O)c1cccs1	-2%	.	-12%	.	.	.	2
CSc1ccc(CN2CCN(CC=C(C)C)C(CCO)C2)cc1 (centres undefined)	-11%[15.4 µM]	1.5	10%	13	.	14%	-7
COc1ccccc1-c1ocnc1C(=O)Nc1ccc(N2CCOCC2)cc1N1CCOCC1	12%[15.4 µM]	-9.0	-3%	6	-1.8%	-14%	-11
Cc1ccc(C)c(N(CC(=O)NC2CCCC2)C(=O)CCC(=O)Nc2nccs2)c1	-1%[15.4 µM]	-5.7	-6%	-1	.	-4%	4
CCN(CCCNC(=O)CCn1c(=O)[nH]c2ccccc2c1=O)c1ccccc1	-3%	-0.1	-2%	11	-3.6%	12%	-3
COc1cccc(C(=O)N(C)CC(=O)Nc2cccc3ccccc23)c1	-19%	.	8%	-5	-0.1%	.	2
Cc1ccc(CNC(=O)/C=C/c2c(Cl)cccc2Cl)cc1	-44%[inhibitor]	.	6%	9	2.4%	14%	-26
COCCn1nnnc1C(c1cccs1)N1CCN(c2nc3ccccc3s2)CC1 (centres undefined)	-17%	3.7	-21%	-8	0.3%	-2%	6
COc1cc(OC)c(C(=O)Nc2ccc(S(=O)(=O)Nc3ncccn3)cc2)cc1OC	?	3.9	27%	7	-17%	4%	0
COc1ccccc1OCCNC(=O)CCNS(=O)(=O)c1ccc(C)cc1	-11%[15.4 µM]	.	-7%	.	.	.	5
O=C(/C=C/c1ccco1)Nc1ccccn1	0%[15.4 µM]	3.7	20%	-3	1.4%	29%	16
O=C(NC12CC3CC(CC(C3)C1)C2)c1cc([N+](=O)[O-])ccc1Cl	-19%	-1.2	-28%	-7	0.7%	3%	0
O=C(c1ccccc1)N(c1ccccc1)C1C=CS(=O)(=O)C1 (centres undefined)	?	2.3	7%	7	-1.8%	11%	-1
COC(=O)c1ccccc1NC(=O)Nc1cc(C)cc(C)n1	-17%	6.0	-3%	-3	?	13%	6
O=C(COC(=O)CNC(=O)C1CCCCC1)NCc1ccccc1	22%	.	2%	-6	0.2%	.	.
COc1cccc(CNC(=O)COC(=O)C2CC3CCCC(C2)C3=O)c1 (centres undefined)	-8%[15.4 µM]	.	-2%	2	-1.9%	.	7
COc1ccc(-c2noc(N3CCC(C(=O)NC(C)c4ccccc4)CC3)n2)cc1 (centres undefined)	31%	-3.9	-30%	-9	0.9%	0%	0
CC(NC(=O)C1CCCN(S(=O)(=O)c2cnc[nH]2)C1)c1ccccc1 (centres undefined)	24%	4.0	5%	7	-1.6%	-3%	-18
C#CCn1c(=NC(=O)c2ccc(Cl)s2)sc2cccc(OC)c21	11%	2.4	9%	5	3.8%	?	4
O=C(c1csc2c1CCCC2)N1CCN(c2ccccc2)CC1	-15%	3.1	-14%	1	1.0%	11%	-5
COc1ccccc1N1CCN(CCS(=O)(=O)c2cc(Cl)ccc2Cl)CC1	-14%	.	.	.	0.7%	.	-8
Cc1ccc(S(=O)(=O)NCCC(=O)Nc2cccc(S(=O)(=O)N3CCCC3)c2)cc1C	-12%	.	-3%	.	-2.7%	.	-1
OCC[C@H]1C[C@H](O)[C@@H](O)[C@@]2(OCc3ccccc32)O1	.	.	-4%	12	-1.6%	.	-1
